Screens as filed in PubChem.
RE007 growth inh – less growth of the S. pombe RE007 Vpr strain; S. pombe RE007 Vpr strain, BacTiter-Glo ATP luminescence, 24 h; control for the full effect not named in the record; Potency, µM (top dose mostly 92.2 µM), for the others: top-dose activity change, negative = less growth; 360,000 compounds, 0.21% hits; active = well fitted falling curve with a large enough effect; inconclusive = small, poorly fitted or top-dose-only effect; inactive = no such curve, though single readings can be large or run the other way;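 further: on the % scale 0 is the no-effect control and ±100 the full control effect; nearly all actives have a fitted effect of over 50% in size; the assay follows cell death caused by Vpr and the record does not say whether a fall means rescue or toxicity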
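Fission yeast RE007 carrying one integrated HIV-1 vpr copy, seeded at OD 0.01 in PMG+AL medium with 23 nL pinned compound. Grown 24 h at 30 degrees; viability read by BacTiter-Glo luminescence after 5 min.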
2A StopGo – lowers the luciferase signal of an FMDV 2A StopGo reporter; human cells with a luciferase reporter of 2A StopGo recoding; control for the full effect not named in the record; Potency, µM (titrated, usually from 57.9 µM), for the others: at the top dose signal change, negative = less light; 410,000 compounds, 1.2% hits; AID 1159524; active = well fitted falling curve with a large enough effect; inconclusive = small, poorly fitted or top-dose-only effect; inactive = no such curve, though single readings can be large or run the other way; tested in HEK293T cells; further: on the % scale 0 is the no-effect control and ±100 the full control effect; nearly all actives have a fitted effect of over 45% in size; luciferase light after 4 h
NS1 inh – influenza NS1 inhibition. AID 2326. 270,000 compounds, 0.4% hits. S. cerevisiae slowed by influenza A NS1, growth recovery by OD600. Potency, µM (titrated, usually from 46.1 µM), without a hit: at the highest dose activity, positive = more growth; active means well fitted rising curve with a large enough effect; inconclusive means small, poorly fitted or top-dose-only effect; inactive means no such curve, though single readings can be large or run the other way; further: nearly all actives have a fitted effect of over 50% in size
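In this qHTS, NS1 from influenza A is expressed in budding yeast, where it slows growth. Cells are switched from glucose to 2% galactose medium (pH 6.0, -URA), treated with compound, and growth recovery is read at OD600.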
MARV entry inh – blocks Marburg virus binding to or entry into cells | Marburg virus pseudotyped entry inhibition, cell reporter; control for the full effect not named in the record; about a third of the inactives were read at about 46 µM | 300,000 compounds, 1.8% hits | Potency, µM (top dose mostly 37.8 µM), for the others: at the top dose activity change, negative = inhibition, actives largely listed as inhibitors; active = well fitted inhibition curve with a large enough effect; inconclusive = small, poorly fitted or top-dose-only effect, or effect the other way; inactive = flat fitted curve, though single readings scatter; tested in HEK293 cells; about a fifth of its hits are not listed in these tables; further: on the % scale 0 is the no-effect control and ±100 the full control effect; luciferase read-out
SARS PLpro yeast – blocks SARS-CoV papain-like protease in a yeast assay | S. cerevisiae expressing SARS-CoV PLpro, growth rescue; control for the full effect not named in the record | Potency, µM (highest dose often 32.9 µM), inactives show top-dose activity, positive = growth rescue | 330,000 compounds, 0.19% hits | AID 485353; active means well fitted rising curve with a large enough effect; inconclusive means small, poorly fitted or top-dose-only effect; inactive means no such curve, though single readings can be large or run the other way; further: 0% is about no effect; nearly all actives have a fitted effect of over 55% in size; growth read by luminescence after 48 h
Lassa entry inh – blocks Lassa virus binding to or entry into cells; Lassa virus pseudotype entry inhibition, cell reporter; control for the full effect not named in the record; Potency, µM (titrated, usually from 37.9 µM), inactives show top-dose activity change, negative = inhibition, actives largely listed as inhibitors; 300,000 compounds, 1.2% hits; AID 540256; active means well fitted inhibition curve with a large enough effect; inconclusive means small, poorly fitted or top-dose-only effect, or effect the other way; inactive means flat fitted curve, though single readings scatter; tested in HEK293 cells; further: on the % scale 0 is the no-effect control and ±100 the full control effect; nearly all actives have a fitted effect of over 50% in size; luciferase read-out
Cruzain inh noDet – cruzain (T. cruzi) inhibition without detergent; P25779; purified cruzain, Z-FR-AMC fluorescence, no detergent; Potency, µM, without a hit: max response, negative = inhibition, usual class: inhibitors; 200,000 compounds, 2.3% hits; AID 1476;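 further: plate controls were enzyme without inhibitor for no effect and buffer without enzyme for full effect; nearly all actives have a fitted effect of over 40% in size; top concentration of the series not given in the record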
Target sequence (P25779 123-467 limits assumed): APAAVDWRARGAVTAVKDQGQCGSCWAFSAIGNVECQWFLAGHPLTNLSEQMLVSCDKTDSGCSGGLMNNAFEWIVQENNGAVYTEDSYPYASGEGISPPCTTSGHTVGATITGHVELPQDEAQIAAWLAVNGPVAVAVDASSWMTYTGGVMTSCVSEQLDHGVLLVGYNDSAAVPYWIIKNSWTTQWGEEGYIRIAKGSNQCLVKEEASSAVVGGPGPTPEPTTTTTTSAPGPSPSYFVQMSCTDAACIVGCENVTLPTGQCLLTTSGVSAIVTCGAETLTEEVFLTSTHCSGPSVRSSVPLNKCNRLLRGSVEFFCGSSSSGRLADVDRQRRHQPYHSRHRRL
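Detergent-free condition (0.00005% Triton X-100) in acetate buffer pH 5.5 with DTT. 1.5 nM enzyme and compound were pre-mixed 15 min, then 2 uM Z-FR-AMC substrate added; reaction progress from fluorescence change between first and third reads (60 s).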
Cruzain inh Det – cruzain (T. cruzi) inhibition with detergent; purified cruzain, Z-FR-AMC fluorescence, 0.01% Triton; Potency, µM, without a hit: max response, negative = inhibition, hits mostly inhibitors; 200,000 compounds, 0.43% hits; AID 1478;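 further: plate controls were neutral wells for no effect and buffer without enzyme for full effect; nearly all actives have a fitted effect of over 40% in size; top concentration of the series not given in the record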
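15 min RT preincubation of 1.5 nM cruzain with compound, then 2 uM Z-FR-AMC added; kinetic AMC fluorescence, 60 s delta. Triton X-100 0.01%, pH 5.5.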
* = called active by the depositor; ? = inconclusive; . = no result given; & = joins results of further samples; [ ] = dose if it differs, or a comment. Unless noted, the call rests on the fitted dose curve; in most records, active means well fitted curve in the direction sought with a large enough effect; inconclusive means small, poorly fitted or top-dose-only effect, or another doubt; inactive means no such curve, though single readings can be large; an effect the other way counts as inactive or inconclusive. Potency means the concentration at half of the fitted maximal effect.

SMILES	RE007 growth inh	2A StopGo	NS1 inh	MARV entry inh	SARS PLpro yeast	Lassa entry inh	Cruzain inh noDet	Cruzain inh Det
CC(C)(C)OC(=O)N1CCC(C(=O)N[C@@H](Cc2ccccc2)C(=O)O)(c2ccccc2)CC1	2%	9%	13%	-3%&31%	12%	0%&1%	?	-3.6%
Cc1ccc(N(C(=O)CNC(=O)c2ccco2)C(C(=O)NC2CCCC2)c2cccnc2)cc1C (stereo not given)	-7%	-4%	-13%	2%&12%	0%	-5%	-5%	3.8%
O=C(O)c1ccc(Oc2cccc([N+](=O)[O-])c2)cc1C(=O)O	-7%	-20%	-2%	8%	-3%	-12%	-6%	-0.2%
CN1CCN(C(=O)CSc2cc(=O)n(C)c3ccccc23)CC1	-11%	-7%	.	9%	-2%	10%	.	.
CC(/C=C/c1ccco1)=N/NC(=O)CNc1ccccc1C	7%	3%	.	22%[46.1 µM]	0%	-10%	.	.
S=P(NCCNP(=S)(N1CC1)N1CC1)(N1CC1)N1CC1	-12%	-3%	.	?	.	?	.	.
CCCOc1ccc(-c2c(=O)n(OCc3ccc([N+](=O)[O-])cc3)c3ccccc3[n+]2[O-])cc1	19%	-2%	6%	-3%	4%	?	?	-0.1%
COC(=O)C1=CN(CC2CCCO2)C=C(C(=O)OC)C1c1cc(OC)c(OC)c(OC)c1 (stereo not given)	-14%[3.69 µM]	4%	-3%	1%	.	?	?	-18%
CC(CN1CCOCC1)OC(=O)c1cccc(Br)c1 (stereo not given)	1%	9%	-1%	5%[46.1 µM]	-6%	19%	2%	6.1%
O=S(=O)(NCCC1=CCCCC1)c1cccc(Br)c1	-18%	60%[activator]	.	5%	2%	-28%	.	.
Cc1cc(C(=O)CSc2nc3ccccc3[nH]2)c(C)n1CC1CCCO1 (stereo not given)	12%	11µM*	-13%	?	-2%	7.9µM*	-7%	2.5%
Cc1ccc(N2CC(C(=O)Nc3ccc(N(C)C)cc3)CC2=O)cc1Cl (stereo not given)	.	31%[activator]	.	1%[46.1 µM]	.	?	-3%	-2.2%
CCCCc1cc2c(c(NC(=O)CC)n1)c(=O)oc1ccccc12	-7%	-6%	-4%	10%	6%	-8%	-6%	0.1%
O=C(Nc1ccn(Cc2ccc(Cl)cc2)n1)c1ccccc1	-11%	10%	.	20%	-1%	?	.	.
CCC(Oc1ccccc1)C(=O)Nc1ccc(S(=O)(=O)N2CCOCC2)cc1 (stereo not given)	1%	.	-10%	4%	-13%	-9%	10%	-2.6%
CC1CN(C(=O)Nc2ccc3c(c2)OCO3)CC(C)O1 (stereo not given)	-3%	58%[activator]	-10%	24%	13%	9%	-6%	7.3%
Cc1c(C(=O)NCc2ccc(N(C)C)cc2)oc2c1-c1nn(Cc3cccc(Cl)c3)cc1CC2	.	-3%	.	.	.	15%[46.1 µM]	-8%	-8.9%
COc1ccc2cc(C(=O)NCCc3ccccc3)[nH]c2c1	8%	40%[activator]	0%	.	-2%	.	.	.
CC(C)Cc1nnc(NC(=O)CCC(=O)N2CCN(Cc3ccc(F)cc3)CC2)s1	9%	0%	-10%	.	4%	.	.	.
COc1nc(/C=C/N(C)C)c([N+](=O)[O-])c(OC)n1	6%	-7%	-4%	.	0%	.	.	.
Cc1ccc(Cl)cc1-n1ncc2c(N3CCC(C(N)=O)CC3)ncnc21	.	-14%	.	.	.	26%[46.1 µM]	-4%	1.2%
Clc1ccc(CSc2nnc(CNc3cccc(Cl)c3)o2)cc1	11%	-18%	-131%	-28%	-17%	21%	4%	-3.8%
O=C(CNCc1ccccn1)Nc1cc(S(=O)(=O)N2CCCCC2)ccc1Cl	-12%	-6%	.	?	2%	?	.	.
Cc1csc(NC(=O)CS(=O)(=O)c2ccccc2)n1	5%	26%	.	?	0%	12%[46.1 µM]	.	.
CCOC(=O)c1c(NC(=O)CSc2cn(CC)c3ccccc23)sc2c1CCC2	6%	?	22%	41%	9%	3%	?	-5.2%
O=C(NCc1cccnc1)c1ccccc1CCc1ccccc1	-3%	-9%	-3%	.	0%	.	.	.
COC(=O)c1ccc(COC(=O)CNC(=O)c2cccs2)cc1	12%	0%	-18%	.	28%	.	.	.
C/C(=N\Nc1nccnc1Cl)c1ccc(O)cc1	-26%	45%[activator]	-5%	.	-6%	.	.	.
CCC(Sc1nncn2c1cc1oc(C)cc12)C(=O)Nc1ccc(F)cc1 (stereo not given)	.	-25%	.	.	.	27%[46.1 µM]	-11%	-7.3%
COc1cc(OC)cc(N(C(=O)CNC(=O)c2cccs2)C(C(=O)NCC2CCCO2)c2ccc(OC)c(OC)c2)c1 (stereo not given)	9%	-4%	-7%	8%[46.1 µM]	1%	6%[46.1 µM]	.	.
COP(=O)(/C=C(\Cl)c1ccccc1)/C=C(\Cl)c1ccccc1	12%	40%[activator]	-1%	.	-3%	.	.	.
C#CCSc1nnnn1-c1ccc(OCC)cc1	-1%	5%	-10%	18%	-1%	1%	.	.
O=C(NCc1ccncc1)C1CCCN1S(=O)(=O)c1ccc(Cl)cc1 (stereo not given)	9%	-7%	1%	2%[46.1 µM]	0%	-4%	.	.
CCC(=O)c1ccc(NC(C)=O)cc1O	-3%	5%	-1%	.	-1%	.	.	.
N=c1c(C(=O)NCC2CCCO2)cc2c(=O)n3ccccc3nc2n1Cc1ccco1 (stereo not given)	-17%	35%	1%	?	1%	3%	.	.
CSc1nnc(NC(=O)c2ccc(S(=O)(=O)N(C)C)cc2)s1	1%	-5%	.	?	-3%	-21%	.	.
O=C(Cn1nc(C(F)F)cc1C(F)F)NNC(=S)Nc1ccc([N+](=O)[O-])cc1	6%	9%	5%	-12%[46.1 µM]	-1%	8%[46.1 µM]	.	.
COc1cc(NC(=S)N2CCN(C(=O)C3CCCO3)CC2)c(OC)cc1Cl (stereo not given)	-10%	1%	7%	0%	0%	7%	10%	-3.8%
COCCCN1C(=O)c2[nH]nc(-c3ccccc3O)c2C1c1ccc(Cl)cc1 (stereo not given)	7%	?	.	?	-3%	?	27%	-4.6%
Cc1ccc(S(=O)(=O)N2CCC(C(=O)C3C(=O)CC(C)(C)CC3=O)CC2)cc1	-5%	-3%	.	-4%[46.1 µM]	4%	1%[46.1 µM]	.	.
CCOCCCNC(=O)C(c1ccc(Cl)cc1)N1CCN(c2ccccc2)CC1 (stereo not given)	8%	-18%	-10%	.	-5%	.	11%	3.1%
CCCn1c(SC(C(=O)Nc2cccc(OC)c2)c2ccccc2)nc2ccccc2c1=O (stereo not given)	-8%	0%	15%	?	-7%	-2%	10µM*	-3.9%
CCOC(=O)c1cnc(SCCc2ccccc2)nc1N	-7%	42%[activator]	-14%	2%	-2%	?	5%	-11%
Cn1c(=O)c2c(ncn2CC(=O)Nc2nccs2)n(C)c1=O	-3%	-7%	-6%	4%[46.1 µM]	-3%	5%	.	.
C[N+](C)(C)CC(=O)N/N=C/c1c2ccccc2cc2ccccc12	-11%	-6%	-16%	.	?	.	.	.
CCOC(=O)Cn1c(=O)c2c(nc3n2CCCN3Cc2ccccc2)n(C)c1=O	-14%	-8%	-4%	11%[46.1 µM]	0%	6%[46.1 µM]	.	.
CN(CC(=O)O/N=C(\N)c1ccc([N+](=O)[O-])cc1)S(=O)(=O)c1ccc2ccccc2c1	11%	?	-4%	-26%	7%	3%	?	-3.5%
NC(=O)CSc1nnc(CNc2cccc(Cl)c2)n1CCc1ccccc1	24%	-7%	-10%	-32%	3%	-18%	?	-1.1%
Cc1cc(C)c(C)c(S(=O)(=O)N[C@@H](C)C(=O)OCC(=O)NC2CCCC(C)C2C)c1C (stereo not given in full)	-22%	-5%	.	7%	0%	0%	.	.
Cc1ccc(-c2nnc(SCC(=O)NCc3ccccc3)nc2-c2ccc(C)cc2)cc1	.	-20%	.	.	.	?	-18%	1.0%

Carrying on:
SMILES	RE007 growth inh	2A StopGo	NS1 inh	MARV entry inh	SARS PLpro yeast	Lassa entry inh	Cruzain inh noDet	Cruzain inh Det
COc1ccc(C(=O)C2CCCN(C3CSCCSC3)C2)c(OC)c1 (stereo not given)	-10%	-12%	-1%	?	0%	-15%[46.1 µM]	.	.
CC(=O)n1nc(-c2cccnc2)nc1NCc1ccc(F)cc1	.	4%	.	4%[46.1 µM]	.	14%[46.1 µM]	-5%	-4.8%
O=S(=O)(NCc1cc(-c2ccc(Cl)cc2)no1)c1ccc(Cl)cc1	-2%	-3%	0%	-29%	-2%	?	-4%	-3.1%
CC(c1nccs1)N(C)C(=O)CCc1nnc(-c2ccc(-c3ccccc3)cc2)o1 (stereo not given)	-3%	-29%	2%	.	0%	.	.	.
S=c1[nH]nc(COc2ccccc2)n1/N=C/c1ccco1	14%	-9%	10%	?	1%	-22%[46.1 µM]	.	.
CCCCC(=O)Nc1ccc(C(=O)NNC(=O)c2ccccc2Br)cc1	-3%	4%	1%	-2%	5%	0%	-2%	0.3%
CC12c3ccccc3C(c3ccccc31)C1C(=O)N(Cc3cccnc3)C(=O)C12 (stereo not given)	4%	.	-56%	19%	-17%	?	3%	2.5%
COc1cc(NC(=O)CN2CCN(CC(=O)Nc3ccc(F)cc3)CC2)cc(OC)c1	.	-14%	.	.	.	-13%[46.1 µM]	5%	-1.8%
CC(=O)c1ccc(C(=O)N2CCCC(CCC(=O)N(C)CCc3ccccn3)C2)s1 (stereo not given)	-10%	22%	?	-7%[46.1 µM]	0%	19%[46.1 µM]	.	.
COc1ccc(OC)c(NC(=O)c2ccc3c(=O)n(CCc4ccccc4)c(=S)[nH]c3c2)c1	3%	0.79µM*	3%	?	-8%	?	10µM*	0.8%
COc1ccccc1CNC(=O)C1CC(c2ccc([N+](=O)[O-])cc2)=NO1 (stereo not given)	-3%	0%	-15%	.	-4%	.	19%	-6.1%
Cc1cccc(/N=C/c2c(C)[nH]n(-c3ccccc3)c2=O)n1	-28%	-11%	1%	.	0%	.	.	.
COc1ccc(/C=C/C(=O)Nc2c(C)nn(C)c2C)cc1COc1ccc(Cl)cc1Br	2%	-21%	1%	-25%	2%	2%	11%	-1.7%
COc1ccc(N2C(=O)c3cccc4cccc(c34)C2=O)cc1	0%	-3%	14%	?	0%	-27%	.	.
